Sfp inh: Sfp phosphopantetheinyl transferase inhibition. Q9F4F7. Biochemical Sfp PPTase activity, qHTS. Potency, µM, for the others: max response, negative = inhibition, usual class: inhibitors. 310,000 compounds, 3.5% hits. AID 1490; active = well fitted inhibition curve with a large enough effect; inconclusive = small, poorly fitted or top-dose-only effect, or another doubt; inactive = no such curve, though single readings can be large or run the other way;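 note: the enzyme is Sfp with the accession as filed and its product quenches rhodamine fluorescence; potency is the fitted concentration of half-maximal effect; 0% = enzyme reaction without inhibitor and -100% = no enzyme wells; top concentration of the series not given in the record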
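With Hepes-Na pH 7.6 buffer containing 10 mM MgCl2, Sfp (15 nM) modified BHQ-2-YbbR (12.5 uM) using rhodamine-CoA (5 uM). Two reads 30 minutes apart at 525/598 nm yielded each well's rate.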
D2 PAM: human D2 receptor positive allosteric modulation; P14416; DiscoveRx D2 beta-arrestin cells, luminescence, 90 min; 100% = 57 uM dopamine signal; potentiation, % (no concentration beside the values); 360,000 compounds, 0.23% hits; AID 624464; active = potentiation of 50% or more; inconclusive = 30% to 50%; inactive = 30% or less;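 note: compound concentration not given in the record; tested on top of an EC20 dose of dopamine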
Target sequence (P14416 whole entry, looked up): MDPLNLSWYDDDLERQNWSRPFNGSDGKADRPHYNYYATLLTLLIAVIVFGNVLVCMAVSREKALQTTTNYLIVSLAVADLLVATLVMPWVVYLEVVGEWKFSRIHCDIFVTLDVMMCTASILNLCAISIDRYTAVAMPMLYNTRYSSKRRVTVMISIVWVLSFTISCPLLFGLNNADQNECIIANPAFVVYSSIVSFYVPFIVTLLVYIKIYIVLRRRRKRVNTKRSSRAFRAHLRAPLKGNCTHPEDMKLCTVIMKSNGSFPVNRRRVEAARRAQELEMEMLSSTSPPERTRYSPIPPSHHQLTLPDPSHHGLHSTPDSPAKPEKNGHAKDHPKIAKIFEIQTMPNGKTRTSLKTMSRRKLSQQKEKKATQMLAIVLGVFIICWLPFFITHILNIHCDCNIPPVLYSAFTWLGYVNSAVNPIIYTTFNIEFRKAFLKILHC
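PathHunter D2 cells, attached overnight at 37 deg C, received compound in DMSO plus dopamine at EC20 (50 nM final) for 90 min at 37 deg C. Beta-arrestin recruitment was read as luminescence after 1 h with detection reagent at ambient temperature.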
TRPV1 PAM: enhances activation of the human vanilloid receptor TRPV1; AID 540277; potentiation, % at 8.33 µM; Q8NER1; TRPV1-expressing cells, Fluo-8 calcium influx, capsaicin EC20 potentiation; host cell line not named in the record; control for the full effect not named in the record; 320,000 compounds, 0.02% hits; active means potentiation above 80%; inconclusive means 30% to 80%; inactive means below 30%; note: 0% is about no effect
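TRPV1-expressing cells were cultured overnight at 35.5C and loaded with Fluo-8 calcium dye for 40 to 90 min at room temperature. After a 10 s baseline, compound was added and calcium influx was read kinetically for 3 min (ex 480/em 520 nm).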
Menin MLL FP FL: inhibitors of human menin-MLL interaction, wild-type MLL peptide | Fluorescence polarization, fluorescein-MLL peptide displacement from menin | FP activity change, % at 61.4 µM | 290,000 tested, under 10 active; inconclusive = falling polarisation curve, or a change in total fluorescence; inactive = total fluorescence flat and polarisation flat or rising; no compound was filed as active; the % refers to the polarisation; negative = inhibition;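 note: % of control where 0% means no effect; inhibitors lower the polarisation; unlabelled MLL peptide was the positive control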
ClpP mod: qHTS Assay for Activators of ClpP; purified B. subtilis ClpP, FRET peptide cleavage, 20 min; Potency, µM (series often up to 57.5 µM), without a hit: top-dose activity change, negative = active; 340,000 compounds, 1.9% hits; ATP-dependent Clp protease proteolytic subunit (Bacillus subtilis (strain 168)), P80244; AID 651965, 2013; active = well fitted falling curve with a large enough effect; inconclusive = small, poorly fitted or top-dose-only effect; inactive = no such curve, though single readings can be large or run the other way; note: potency is the fitted concentration of half-maximal effect; the source files actives as falling curves though it sought activators and does not explain the sign; nearly all actives have a fitted effect of over 65% in size; many hits overshoot -100%
Target sequence (P80244 whole entry, looked up): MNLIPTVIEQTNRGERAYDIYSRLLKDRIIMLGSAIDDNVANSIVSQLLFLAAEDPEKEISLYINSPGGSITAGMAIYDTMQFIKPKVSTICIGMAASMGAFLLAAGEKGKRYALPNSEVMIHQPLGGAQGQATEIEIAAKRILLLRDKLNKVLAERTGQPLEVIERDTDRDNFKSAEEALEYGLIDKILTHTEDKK
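ClpP 10 microg/mL final, pH 8 Tris/KCl buffer with BSA, glycerol, Tween-20; compound pinned in; FRET-FV substrate; RT 20 min; Ex320/Em430; ΔFRET vs ADEP 5.8 microM, DMSO, no enzyme.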
gsp antag: antagonists of gsp mutant (McCune-Albright syndrome). Potency, µM (series often up to 76.9 µM), for the others: top-dose activity change, negative = inhibition, hits mostly inhibitors. 340,000 compounds, 0.4% hits. gsp-mutant cells, cAMP HTRF, 30 min; control for the full effect not named in the record; active = falling curve of any shape with a large fitted effect; inconclusive = falling curve, mostly with a smaller effect; inactive = flat or rising curve; cell line not stated here;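 note: intracellular cAMP measured with PDE inhibitor Ro 20-1724 present during compound exposure; potency is the fitted concentration of half-maximal effect; % is set by controls: 0 for no effect and ±100 for the full control effect; nearly all actives have a fitted effect of over 65% in size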
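G418-selected cells were plated in DMEM/10% FBS for 16-24 h at 37C, then treated with compounds plus the PDE inhibitor […] (300 uM solution added) for 30 min at 37C. Intracellular cAMP was measured by HTRF after 30 min lysis at room temperature.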
gsp agonist: activates gsp, the McCune-Albright syndrome mutation | 340,000 compounds, 0.13% hits | gsp mutant cells, cAMP HTRF, 30 min; control for the full effect not named in the record | Potency, µM (doses to about 76.9 µM), for the others: top-dose activation (cAMP increase), usual class: activators; active = well fitted activation curve with a large enough effect; inconclusive = small, poorly fitted or top-dose-only effect, or another doubt; inactive = no such curve, though single readings can be large or run the other way; cell line not stated here;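 note: phosphodiesterase inhibitor Ro 20-1724 added with compounds to block cAMP breakdown; potency is the fitted concentration of half-maximal effect; nearly all actives have a fitted effect of over 60% in size; about a fifth of the inactives were tested at one dose only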
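Cells in DMEM/10% FBS with G418 were pretreated with compounds in DMSO plus […] (300 uM stock) for 30 min at 37C. cAMP was measured by HTRF (cAMP-d2 plus anti-cAMP antibody-K) after 30 min at room temperature.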
The depositor's hits bear a star; u = inconclusive; x = no result given; [ ] = another dose, or the depositor's remark.

SMILES | Sfp inh | D2 PAM | TRPV1 PAM | Menin MLL FP FL | ClpP mod | gsp antag | gsp agonist
CN1C(C(=O)NCC2CC2)CC2Cn3c(nc4cc5ccccc5cc43)C21 (stereo not given) | 8% | -26 | 0 | 2.8 | -19% | -1% | x
O=C(COc1cccc2ccccc12)Nc1ccc(Cl)cc1C(=O)O | -5% | 5 | 9 | x | -28% | u | -13%
N#CCOc1ccccc1/C=C/c1nc2ccccc2c(=O)[nH]1 | 4% | 0 | 1 | 0.5 | x | 11% | 26%[15.4 µM]
COc1ccccc1CN1CC(C(=O)N(C)Cc2[nH]c3ccccc3c2C)CCC1=O (stereo not given) | 0% | -8 | 0 | x | -3.3% | -22% | 0%
CN1C(=O)CC(N2CCN(c3ncccn3)CC2)C1=O (stereo not given) | 4% | -4 | -1 | -1.9 | -15% | -4% | -7%
COc1cc(OC)cc(-c2nc(N)n[nH]2)c1 | 11% | -8 | -9 | -0.1 | -6.4% | 11% | u
CCC(OC(=O)c1cccs1)C(=O)NC1CCCCC1 (stereo not given) | 11% | -13 | -6 | 4.5 | -1.1% | 3% | -30%
CC1CCN(CC(=O)N2CCc3ccccc32)CC1 | 9% | -11 | 0 | x | 0.5% | 5% | -18%
CCN(C(=O)COC(=O)/C=C/c1ccc(OC)c(OC)c1)c1c(N)n(Cc2ccccc2)c(=O)[nH]c1=O | x | -3 | x | x | -17% | 8% | 1%
O=C(CC(c1ccccc1)c1cc(Cl)ccc1O)N1CCCC1 (stereo not given) | -6% | 6 | 8 | 3.6 | x | -8% | -2%[15.4 µM]
COc1ccc(S(=O)(=O)N2CCCCCC2)cc1C(=O)N(C)CC(=O)Nc1ccc(F)cc1 | x | 4 | 1 | x | x | 4% | 0%[15.4 µM]
CN(CCOc1ccccc1)CC(=O)Nc1ccc(Br)cc1F | -3% | -8 | -23 | 1.1 | x | 0% | 28%
Cc1ccc(NC(=O)CSC2=NN3CCCC(=O)N=C3S2)cc1Cl | 19% | -9 | -4 | 4.9 | x | -2% | 5%
CNC[C@H]1Oc2cc(Br)ccc2S(=O)(=O)N([C@H](C)CO)C[C@H]1C | x | -3 | x | x | 1.1% | x | 24%
C[C@@H]1CN([C@@H](C)CO)C(=O)CCCn2nncc2CO[C@H]1CN(C)C(=O)Nc1ccc(F)cc1 | x | -3 | x | x | -1.9% | x | -7%
CN=c1sc(C(=O)Nc2ccccc2)c(C)n1C | 2% | -6 | -1 | -0.3 | 0.1% | 11% | 14%[15.4 µM]
CCOc1ccc(OCC(=O)NCc2n[nH]c(=O)c3ccccc23)cc1 | x | -28 | -2 | x | -21% | 8% | 5%
O=C(CN1c2cccc3cccc(c23)S1(=O)=O)Nc1ccccc1F | 1% | -3 | 2 | -3.9 | -0.2% | -8% | 1%[15.4 µM]
CCCN(C(=O)C1CCN(S(=O)(=O)c2ccc(OC)c(OC)c2)CC1)C1CCS(=O)(=O)C1 (stereo not given) | x | 0 | -3 | x | 14µM* | 6% | 5%
Cc1cc(Cl)c(S(=O)(=O)NCc2ccccc2)cc1OCC(N)=O | 23% | -1 | -6 | 3.7 | -0.2% | 10% | -21%
CC(C)(C)OC(=O)N[C@@H](/C=C/c1ccccc1)C(=O)OC(C)(C)C | x | -12 | -12 | x | -1.6% | -4% | x
Cc1ccc2nc(/N=C(\N)NC(=O)N3c4ccccc4Sc4ccccc43)nc(C)c2c1 | 19% | u | 17 | 6.6 | u | 5% | -21%
CS(=O)(=O)N(Cc1ccccc1)c1ccccn1 | 4% | -13 | -19 | 3.5 | -2.5% | 13% | -52%[inhibitor]
COc1cccc(-c2nnn(CC(=O)N3CCCCC3)n2)c1 | 12% | -1 | 2 | -0.7 | x | -1% | -10%
Cc1ccc(/C=N/NC(=O)c2ccncc2)cc1 | 13% | 0 | 11 | -1.2 | x | 1% | -7%

2 of the compounds above, in markdown:
| Molecule | Sfp inh | D2 PAM | TRPV1 PAM | Menin MLL FP FL | ClpP mod | gsp antag | gsp agonist |
| --- | --- | --- | --- | --- | --- | --- | --- |
| COc1ccccc1CN1CC(C(=O)N(C)Cc2[nH]c3ccccc3c2C)CCC1=O (stereo not given) | 0% | -8 | 0 | x | -3.3% | -22% | 0% |
| CN1C(C(=O)NCC2CC2)CC2Cn3c(nc4cc5ccccc5cc43)C21 (stereo not given) | 8% | -26 | 0 | 2.8 | -19% | -1% | x |

The list continues.
SMILES | Sfp inh | D2 PAM | TRPV1 PAM | Menin MLL FP FL | ClpP mod | gsp antag | gsp agonist
O=C(N/N=C/c1ccc(Br)s1)c1ccccc1[N+](=O)[O-] | 5% | -7 | 4 | 1.6 | 1.1% | -11% | 11%
CC(=O)Nc1ccc(S(=O)(=O)N2CCN(CC(O)COc3ccc4ccccc4c3)CC2)cc1 (stereo not given) | 6% | 10 | 8 | 2.7 | 0.7% | -31% | -41%[inhibitor]
COc1ccc(C(=O)C(C)[n+]2ccc(C)c3ccccc32)cc1[N+](=O)[O-] (stereo not given) | 24% | -25 | 1 | 4.8 | -7.8% | 5% | -25%
O=C(CN(Cc1ccc(Br)cc1)S(=O)(=O)c1ccccc1)NCC1CCCO1 (stereo not given) | 13% | 12 | -13 | x | -2.0% | 8% | -5%[15.4 µM]
Nc1ccccc1C(=O)N1CCCC1 | -1% | -3 | -4 | 4.9 | x | 15% | 7%[15.4 µM]
CCOc1ccc(N2CC(NC(=O)c3ccc4ccccc4c3)CC2=O)cc1 (stereo not given) | x | 8 | -22 | x | 130% | -3% | 26%
C/C(=N/NC(=O)CNC(=O)c1cccs1)c1ccc(Cl)cc1 | -2% | -30 | 16 | -5.3 | -3.3% | 1% | -18%
CC(C)NC(=O)CSCc1c(Cl)cccc1Cl | 14% | 23 | 5 | 2.3 | -0.8% | -4% | -44%[inhibitor]
CC/C=C/C(=O)N1CC2(CC(c3cccc(NC(=O)c4ccccc4)c3)=NO2)C[C@@H]1C(N)=O (stereo not given in full) | 13% | -6 | -3 | -0.8 | -2.0% | 7% | x
CCOc1cc(/C=C2\CN(CC)C/C(=C\c3ccc(O)c(OCC)c3)C2=O)ccc1O | -14% | -16 | 17 | u | x | -13% | 5%[15.4 µM]
O=S1(=O)N[C@H](c2ccccc2)C[C@H](c2ccc(C(F)(F)F)cc2)O1 | 17% | -14 | 6 | -2.7 | -1.8% | 11% | -1%
O=C(COC(=O)c1cc(=O)[nH]c2ccccc12)NCc1cccc(Cl)c1 | x | -12 | 28 | x | 1.5% | 6% | -27%
C=CCN1N=C(/C=C/c2ccc(OC)cc2)CCC1=O | 1% | -2 | -7 | 5.1 | x | -3% | -16%
COc1nc(SC)nc(Cl)c1Cc1ccc(OC(C)C)cc1 | -13% | -6 | -4 | 5.3 | 0.5% | u | 23%
O=C(CN1C(=O)c2ccccc2S1(=O)=O)N1CCc2ccccc21 | -8% | -12 | -4 | 2.0 | -1.4% | 0% | 25%
Cc1cccc2cc(CN(CCCO)C(=O)Nc3cccc(Cl)c3)c(=O)[nH]c12 | -4% | 9 | 1 | 2.6 | -21% | -2% | 21%
Cc1ccc2nsnc2c1NC(=O)c1cccc([N+](=O)[O-])c1 | -10% | x | -16 | 2.2 | x | x | x
CCOC(=O)[C@H]1[C@H]2COc3ccc(C)cc3[C@@H]2N2C(=O)c3cc(C)ccc3NC(=O)[C@@]12C | x | -40 | x | x | -5.0% | -18% | x
O=C(N/N=C/c1ccccc1O)/C(=C/c1ccccc1)CCO | 14% | -41 | 0 | 3.8 | 5.7% | -4% | 4%[15.4 µM]
O=C(NNc1nc2ccccc2s1)c1ccccc1F | 20% | -11 | x | 1.5 | -5.5% | 26% | -7%
CCc1ccc(OCc2cnc(Cl)s2)cc1 | -2% | -9 | -6 | -1.1 | 0.1% | 2% | -15%
O=C(O)C1=C[C@H](c2cccs2)C[C@H](OCCCCO)O1 | -3% | 0 | 18 | 3.5 | -15% | -5% | x
O=C(O)C1C2C=CC(O2)C1C(=O)NCCc1cccc(Cl)c1 (stereo not given) | 2% | -1 | 3 | -0.2 | x | 9% | -23%
COc1ccc(CC(=O)OCc2csc(CC(=O)Nc3ccc(C)cc3)n2)cc1 | x | -9 | x | x | x | 2% | -15%
CCc1nc(N)nc(N)c1-c1ccc(N(C)Cc2ccccc2)c([N+](=O)[O-])c1 | x | -20 | x | x | -2.9% | -10% | 23%
SMILES | Sfp inh | D2 PAM | TRPV1 PAM | Menin MLL FP FL | ClpP mod | gsp antag | gsp agonist
CC(=O)Nc1ccc(NC(=O)CCNS(=O)(=O)c2cccc3nsnc23)cc1 | 18% | 5 | 3 | 4.2 | 1.3% | -7% | -29%
O=C(C1CC(=O)N(C2CCCC2)C1)N1CCN(c2ccccc2F)CC1 (stereo not given) | 16% | -5 | 2 | 2.4 | 2.2% | 6% | 2%
CC(NCC(=O)NC(=O)NC1CCCC1)c1ccc(Cl)cc1Cl (stereo not given) | x | 11 | -4 | x | -3.7% | 10% | 9%
COCCN(C(=O)c1ccccc1F)c1nnc(-c2ccc(OC)cc2)s1 | -19% | -3 | -11 | 2.4 | -4.7% | -4% | -45%[inhibitor]
O=C(N/N=C/c1cccc([N+](=O)[O-])c1)c1cccc(Br)c1 | 21% | -3 | 0 | -1.3 | 0.7% | -10% | 49%
O=C(CCc1nnc(C2CCCCC2)o1)NCCCOc1cccnc1 | 17% | 1 | 3 | -1.8 | x | 10% | -24%[15.4 µM]
CCc1cc(/C(Cc2ccccn2)=N\Nc2ccccc2)c(O)cc1O | -2% | -7 | 6 | 0.3 | x | -5% | 10%[15.4 µM]
O=C(c1ccccc1-c1nc(-c2ccc(F)cc2)no1)N1CCCC1 | 6% | -19 | -23 | 1.6 | -1.1% | -7% | -3%
COc1ccc(-c2ccnc(-c3ccc(O)cc3)n2)cc1 | 5% | -3 | -10 | 1.7 | x | 14% | 4%[15.4 µM]
COCCCNC(=O)CCCn1c(=O)c2ccccc2n(Cc2cccc([N+](=O)[O-])c2)c1=O | 19% | -6 | 17 | 3.5 | x | -4% | 2%[15.4 µM]
Cc1cc(C)c(Nc2ncnc(N)n2)c(C)c1 | 3% | 3 | -3 | -1.4 | -2.5% | 5% | -8%[15.4 µM]
O=C(Cc1ncc(C(F)(F)F)cc1Cl)NNc1cccc(F)n1 | 18% | -7 | -7 | 3.7 | 1.0% | -2% | -8%
